HNF4A DNA FP: change in binding of human HNF4 alpha to DNA; hit rate 0.3% among 360,000; P41235; AID 1224865; HNF4a-FITC DNA binding, fluorescence polarization, 1 h; activity change, % at 10 µM; in the data active = activity change above about 30%, passing the limit was not always enough;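 note: controls were the assay level and a saturating level of protein; the project sought stronger binding though the title names inhibitors; some compounds called inactive have numbers as strong as hits; positive values seem to mean higher polarization but the record does not say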
B2AR ag: activates human beta-2 adrenergic receptor causing internalization; P07550; Am2.2-beta2AR cells, FAP receptor internalization, flow cytometry; reference of the scale not given here; response, % (test concentration not listed); hit rate 0.43% among 340,000; AID 504454;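 active = response above a set limit, near 3 SD of response in nonfluorescent compounds, cut at about 42% in these data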;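 note: stock transfer was 100 nL into about 11 µL; a reference agonist was the positive control; negative values mostly stem from fluorescent compounds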
A1 inh: inhibitors of the anti-apoptotic protein A1, read as caspase activation | MEF A1-2A-BIM cells, Caspase-Glo 3/7 luminescence, 3 h; percent of clofoctol response, vehicle zero | caspase activation, % (no concentration beside the values) | hit rate 0.066% among 330,000 | AID 2462;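 active = over half of replicate activation scores above 10%, or exactly half above 10 with the replicate mean above 10; inconclusive = replicate mean below 10 yet half the replicates above 10; inactive = over half of replicates below 10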;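 note: wells of about 30 µL received 50 nL stock; many hits fall short of the cut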
E coli growth: E. coli growth inhibition; AID 1053175; Escherichia coli growth, OD600, 23 h; stronger effect = lower value; hit rate 0.21% among 330,000; OD600 absorbance (test concentration not listed);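 active = OD600 absorbance below the run mean of sample wells minus 3.6 SD, in any replicate, cut at about 0.56 in these data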;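 note: stock transfer was 300 nL into about 60 µL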
Vif TR-FRET: inhibitors of Vif binding to APOBEC3G peptide, primary screen, biochemical, TR-FRET, GST-Vif 1-94, biotin-A3G peptide, dose response retest (AID 1117319). inhibition, %, or IC50 in µM where a hit was titrated. hit rate 0.57% among 260,000. TR-FRET GST-Vif / biotin-A3G peptide binding; higher % means a stronger effect; test concentration not given here; strong numbers were not always called active;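 active = above the screen mean plus three standard deviations and confirmed in dose response; inconclusive = results disagree or hit not tested in dose response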;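 note: Vif residues 1-94 fused to GST binding biotinylated APOBEC3G peptide 110-148; 0% = full assay without inhibitor and 100% = GST in place of GST-Vif; retest series ran down from 100 µM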
LANA-H2B inh: blocks KSHV LANA binding to histone H2A/H2B; cell-free LANA-H2A/H2B peptide, fluorescence polarization; inhibition, % (test concentration not listed); Q9QR71; hit rate 0.6% among 320,000; AID 2629; in the data active = inhibition mostly above about 10%, no sharp cut-off; inactive = mostly below about 6.7%;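 note: stock transfer was 7.5 nL into about 10 µL; 0% = median of vehicle wells and 100% = median of positive control wells; one replicate is shown; the record names a cut of 25% in any replicate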
Target sequence (Q9QR71 whole entry, looked up): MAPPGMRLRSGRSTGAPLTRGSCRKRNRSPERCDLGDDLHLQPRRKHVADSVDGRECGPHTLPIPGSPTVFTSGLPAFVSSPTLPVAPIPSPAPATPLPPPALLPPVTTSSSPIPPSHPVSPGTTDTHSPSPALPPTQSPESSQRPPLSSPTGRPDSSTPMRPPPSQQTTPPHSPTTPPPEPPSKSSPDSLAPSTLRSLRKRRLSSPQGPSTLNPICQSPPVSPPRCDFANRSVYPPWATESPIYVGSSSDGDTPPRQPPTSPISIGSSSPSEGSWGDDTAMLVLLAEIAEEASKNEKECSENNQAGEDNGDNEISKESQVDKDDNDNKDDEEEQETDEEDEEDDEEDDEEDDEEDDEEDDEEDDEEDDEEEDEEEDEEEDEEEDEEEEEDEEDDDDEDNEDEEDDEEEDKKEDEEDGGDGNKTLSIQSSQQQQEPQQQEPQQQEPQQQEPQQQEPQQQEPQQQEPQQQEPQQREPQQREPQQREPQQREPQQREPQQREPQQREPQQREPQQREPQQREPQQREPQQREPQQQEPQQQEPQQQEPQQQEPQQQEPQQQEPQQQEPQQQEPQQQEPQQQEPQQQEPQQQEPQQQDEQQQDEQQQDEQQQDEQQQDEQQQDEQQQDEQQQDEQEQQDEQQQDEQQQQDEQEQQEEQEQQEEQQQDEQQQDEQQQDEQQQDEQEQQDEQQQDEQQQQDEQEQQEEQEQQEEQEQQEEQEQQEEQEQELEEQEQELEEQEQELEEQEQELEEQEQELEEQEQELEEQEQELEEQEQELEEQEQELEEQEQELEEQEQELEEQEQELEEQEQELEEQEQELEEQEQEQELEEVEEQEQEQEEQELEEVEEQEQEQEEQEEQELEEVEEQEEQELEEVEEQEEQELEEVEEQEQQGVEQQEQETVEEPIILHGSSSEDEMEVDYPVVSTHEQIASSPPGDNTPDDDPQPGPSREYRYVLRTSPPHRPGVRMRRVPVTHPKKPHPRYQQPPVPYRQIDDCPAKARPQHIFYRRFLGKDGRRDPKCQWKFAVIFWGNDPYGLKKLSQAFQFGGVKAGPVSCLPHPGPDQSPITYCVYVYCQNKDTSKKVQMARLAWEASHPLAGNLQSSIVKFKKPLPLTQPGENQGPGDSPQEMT
UCH37 inh: blocks the human deubiquitinase UCH37. purified proteasome/UCH37, Ub-AMC cleavage fluorescence. inhibition, % (test concentration not listed). hit rate 0.33% among 330,000. AID 588478;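 active = mean of two replicates above 20%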;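 note: 0% = compound-free wells with enzyme and 100% = wells lacking proteasome; stock transfer was 100 nL into about 20 µL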
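System: Proteasome-associated human UCH37 deubiquitinase; Input: 0.15 nM proteasome in added enzyme buffer; Also added: Ub-AMC substrate from 1 µM stock; Incubation: 30 min compound-proteasome preincubation then 25 min substrate reaction, room temperature; Detection: fluorescence, ex 355 nm, em 460 nm; Read-out: % inhibition of Ub-AMC cleavage fluorescence; Benchmarks: no-proteasome and no-compound wells.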
* = called active by the depositor; ? = inconclusive; . = not tested or not shown; & = joins results of further samples.

Below each SMILES: HNF4A DNA FP, B2AR ag, A1 inh, E coli growth, Vif TR-FRET, LANA-H2B inh, UCH37 inh
Cc1ccccc1S(=O)(=O)NC(=NCc1ccc(F)cc1)c1ccccc1
→ 2.8, -3.9, 0.1, 0.688, 0.0%, -0.8, 0.9
O=C(NCc1ccccn1)c1ccc2nc(C3CCCCC3)oc2c1
→ 1.4, 5.1, 1.3, 0.695, ., -4.2, 4.1
Cc1nc2ccc(NC(=O)COc3ccccc3C)cc2s1
→ 1.3, -4.7, 2.4, 0.707, -3.3%, 7.8, 2.9
Cc1ccc(S(=O)(=O)N2CCC[C@H]2C(=O)OC(C)C(=O)Nc2ncc(Cl)cc2Cl)cc1 (stereo partly specified)
→ -1.4, -1.1, 0.3, 0.706, -8.6%, -2.6, 0.0
Cc1cc(Cl)c2oc(C(=O)NCCN3CCOC3=O)c(C)c2c1
→ 3.4, 1.4, -0.5, 0.698, ., 3.0, 1.9
COc1ccc(CCNc2nc(-c3ccc(NC(C)=O)cc3)cs2)cc1OC
→ 1.4, 9.4, 0.2, 0.732, ., 0.4, 4.5
Brc1cc(Br)c2nc(-c3cccs3)ccc2c1
→ 1.8, -5.2, -0.9, 0.757, -111.0%, -0.1, 2.0
Cc1ccc2[nH]c(C(=O)N3CCN(C=O)CC3)cc2c1
→ -0.3, 0.3, -7.3, 0.655, ., 12.7, 0.1
O=C(NC(=O)N1CCCCC1)c1ccccc1
→ 5.5, 2.1, -0.3, 0.661, 5.9%, 2.0, -2.1
CCN(CC(=O)Nc1cc(C)c(Cl)cc1OC)CC(=O)NC1CCS(=O)(=O)C1 (stereo unspecified)
→ -2.0, 1.3, -0.3, 0.72, ., -1.2, 0.8
O=c1[nH]nc(-c2ccccc2)cc1-c1ccccc1
→ 3.0, 5.2, 0.5, 0.647, ., -3.2, -5.9
CC(=O)NC(Cc1c[nH]c2ccccc12)C(=O)N1CCN(S(=O)(=O)c2ccccc2)CC1 (stereo unspecified)
→ 2.6, -3.2, 1.1, 0.651, -11.7%, -3.4, -0.1
CCC(C)(C)NC(=O)C(c1ccc(O)cc1)N(Cc1ccco1)C(=O)CCC(=O)Nc1ccccn1 (stereo unspecified)
→ 2.7, -5.2, -0.9, 0.68, ., -6.9, 0.2
Cc1ccc(-c2cc(=O)c3ccccc3[nH]2)cc1
→ -3.4, 1.7, 0.0, 0.631, ?, -8.9, 1.5
Cc1ccc(S(=O)(=O)N(CC(=O)Nc2ccc(F)cc2)C(=O)N2CCN(C)CC2)cc1
→ 8.2, -0.6, 0.9, 0.685, -5.0%, 0.2, 1.5
O=C(CN1C(=O)c2ccccc2C1=O)N1CCN(S(=O)(=O)c2ccccc2)CC1
→ -3.3, 1.2, -1.4, 0.72, ., -3.9, -1.1
Cc1ccc(NC(=O)NNC(=O)C2CCN(Cc3ccc(F)cc3Cl)CC2)cc1
→ 3.4, 4.8, -0.8, 0.672, 6.5%, -1.3, 1.4
COc1ccccc1-c1nnc(SCC(=O)Nc2ccc(Cl)cc2Cl)o1
→ 3.0, 19.0, -0.4, 0.683, 0.3%&-0.8%, -4.3, 0.9
COc1ccccc1NC(=O)COc1ccc2ccccc2c1
→ 5.9, -3.6, 0.3, 0.697, 23.6%, -39.4, 0.6
CC(O)CNC(=O)C1CCN(Cc2ccc(OCc3ccccc3)cc2)CC1 (stereo unspecified)
→ 0.8, -1.6, 0.1, 0.712, 18.0%, 0.8, 0.8
Cc1cc(C(=O)OCC(=O)c2ccc3c(c2)OCCO3)c(C)o1
→ 0.8, -2.1, 0.2, 0.675, 7.2%, -0.8, 2.8
CCOC(=O)c1ccc(NC(=O)c2nc[nH]c2C(=O)N2CCN(c3ccccc3)CC2)cc1
→ -4.5, 0.8, 0.3, 0.699, ., 4.6, -2.9
CCCCCc1cc(=O)oc2c(C(CCN3CCCC3)c3cc(OC)c(OC)c(OC)c3)c(OC)cc(OC)c12 (stereo unspecified)
→ 0.6, 20.0, -0.9, 0.686, 14.3%, -0.7, -0.7
COc1ccc(CC(=O)Nc2cccc(-c3nnc(-c4ccc(C)cc4)o3)c2)cc1OC
→ 7.4, 49.5*, -0.8, 0.691, 13.1%, -0.4, -1.3
O=C(NCC1CCCO1)c1cccc(NC(=O)c2ccccc2)c1 (stereo unspecified)
→ 1.1, -0.1, -0.6, 0.646, ., -5.3, 0.9
COC(=O)c1ccc(N2CCN(CC(=O)c3ccc(-c4ccccc4)cc3)CC2)c([N+](=O)[O-])c1
→ 1.3, 4.2, -0.3, 0.731, -9.4%, 5.2, 2.0
O=C(NNC(=S)NC1CCCCC1)c1ccccc1Cl
→ 2.6, 9.2, ?, 0.722, -4.8%, -2.1, 0.0
O=C(COC(=O)C1(c2cccc(F)c2)CCCC1)NCc1cccs1
→ 3.4, -3.1, 0.4, 0.657, 22.0%, -1.3, 3.8
CCOC(=O)N1CCC(NCCNC(=O)c2ccco2)CC1
→ -1.6, 2.4, 0.2, 0.661, ., 3.7, 4.7
Cc1ccc(-c2nc3ncccn3c2Nc2ccc3c(c2)OCCO3)o1
→ 38.1*, -3.4, 1.2, 0.713, ?, 5.9, 10.2
COc1ccc(NS(=O)(=O)c2cc(C(=O)NNC(=O)c3ccncc3)ccc2OC)c(OC)c1
→ 7.4, ., -1.2, 0.648, ., 2.4, 0.7
Cc1nn(C)cc1/C=N/NC(=O)Cn1nccc1C
→ -1.4, 0.5, -0.1, ., ., -1.2, .
COc1ccccc1NC(=O)CCC(=O)Nc1nnc(C2CCCCC2)s1
→ 2.5, -5.0, -0.6, 0.687, ., 5.0, 2.2
CC1=CC(C)(C)N(C(=O)CNC2CCCC2)c2cc(C)ccc21
→ 4.2, -2.3, 0.3, 0.659, -4.6%, -6.6, -1.5
O=C(/C=C\Nc1ccc2c(c1)OCO2)c1ccc2c(c1)OCO2
→ 80.8*, -0.4, 0.8, 0.738, -2.9%, -4.1, -14.2
O=C(Nc1ccccc1)N1CCCCC1c1cccnc1 (stereo unspecified)
→ 1.2, -7.4, -0.4, 0.72, -2.0%, -2.4, -1.1
COCc1c(C(=O)OCC(=O)c2ccc[nH]2)oc2ccccc12
→ 2.7, -4.7, 0.0, 0.674, -0.4%, 10.0, 5.0
Fc1cc(Cl)ccc1NC1=NCCCCC1
→ -0.4, 4.0, 0.3, 0.675, 1.1%, 0.8, 3.1
O=C(/C=C/c1ccccc1[N+](=O)[O-])N1CCc2ccccc2C1
→ 0.6, 0.8, -0.9, 0.685, ., 1.5, 2.7
Fc1cccc(NC(=S)NCCCN2CCOCC2)c1
→ 0.1, 0.6, -0.7, 0.779, 20.6%, -8.4, 5.3
Cc1ccc(OCC(=O)Nc2nnc(C3CCCO3)s2)c(Br)c1 (stereo unspecified)
→ 0.2, -0.8, 0.7, 0.712, ., 0.7, -2.2
NC(=O)C1CCN(C(=O)/C(=C/c2ccco2)NC(=O)c2ccccc2)CC1
→ -3.6, 1.8, 0.0, 0.677, ., 2.0, 5.4
CC(Sc1sc(=S)sc1SC(C)C(=O)O)C(=O)O (stereo unspecified)
→ -2.0, -9.9, 0.3, 0.678, -2.0%, -0.5, 12.1
Cc1cccc(-c2nnc(SCC(=O)Nc3cccc(C(=O)N4CCOCC4)c3)n2C)c1
→ -2.5, -6.0, -0.9, 0.657, -8.6%, 7.8, -1.8
CCC(CC)C(=O)N1CC(=O)Nc2ccc(C)cc2C1c1ccccc1 (stereo unspecified)
→ 5.3, -8.3, -0.1, 0.677, -1.2%, -2.4, 3.8
CC(C)(C)NC(=O)Cn1ccc(=N)c2ccccc21
→ -0.5, 6.5, -0.4, 0.728, 10.6%, 3.7, 2.8
C/C(CC(=O)Nc1ccc(Cl)c(C(F)(F)F)c1)=N\NC(=O)c1cnccn1
→ 2.4, -3.3, 0.4, ., ., -4.4, .
CC(C)C(C)NC(=O)COC(=O)c1cc(S(=O)(=O)N(C)C)ccc1N1CCCC1 (stereo unspecified)
→ ., ., 0.2, 0.659, -0.9%, 1.2, 3.1
COc1ccc(N2C(=NC(=O)C3CC3)SC3CS(=O)(=O)CC32)cc1Cl (stereo unspecified)
→ 4.3, -9.4, 0.9, 0.698, ., -3.7, 3.4
COc1ccc(CNC(=O)Cc2csc(NC(=O)Nc3ccccc3OC)n2)cc1
→ 1.6, 14.5, 0.3, 0.643, 3.0%, -0.1, 0.9
Cc1ccc(NC(=O)CCC(=O)NNC(=O)c2ccccc2)c(C)c1
→ 0.2, 7.0, 0.1, 0.688, -1.9%, 0.6, 2.1
CCOc1ccc(-c2cc(N3C(=O)Nc4ccccc4N3O)n[nH]2)cc1
→ 1.8, -5.1, -1.5, 0.675, -5.8%, 1.5, 1.2
CCOC(=O)c1ccc(NC(=O)c2ccc(C)c(S(=O)(=O)N3CCOCC3)c2)cc1
→ -5.7, 12.0, -0.6, 0.764, 18.2%, -1.0, 6.0
CCOc1ccccc1N(CC(=O)Nc1ccc2c(c1)OCCO2)S(C)(=O)=O
→ 0.8, 2.0, 0.9, 0.708, -0.5%, 11.3, 1.9
N#C[C@H]1C(O)C(O)c2ccccc2N1C(=O)c1ccccc1 (stereo partly specified)
→ 0.6, 0.5, 0.2, 0.724, ., -5.8, -2.2
CCCn1nc(C(=O)N2CC(=O)Nc3ccccc32)c2ccccc2c1=O
→ -2.3, 1.5, 0.3, 0.715, 1.8%&3.5%, -3.1, -0.8
Cn1cccc1C(=O)OCC(=O)Nc1ccc2[nH]c(=O)[nH]c2c1
→ -3.6, 0.2, 0.8, 0.662, ., 3.3, 2.7
CCOc1cc(N2CCOCC2)c(OCC)cc1NC(=O)CSc1nnc(N)s1
→ 5.1, -0.2, 0.8, 0.712, -0.9%, -1.2, -0.6
CC(C)NC(=O)C1CCCN(c2nnc(-n3cccc3)s2)C1 (stereo unspecified)
→ 4.7, -12.8, -0.7, 0.731, 2.1%, -6.4, 1.0
CC(Sc1nnc(Cn2c(=O)sc3ccccc32)n1C)c1ccccc1 (stereo unspecified)
→ 4.9, -22.4, 0.5, 0.718, 26.3%, 3.1, 1.7

Complete entries as entered above.
Cn1cccc1C(=O)OCC(=O)Nc1ccc2[nH]c(=O)[nH]c2c1 is entered as HNF4A DNA FP = -3.6; B2AR ag = 0.2; A1 inh = 0.8; E coli growth = 0.662; Vif TR-FRET = .; LANA-H2B inh = 3.3; UCH37 inh = 2.7
CC(C)C(C)NC(=O)COC(=O)c1cc(S(=O)(=O)N(C)C)ccc1N1CCCC1 (stereo unspecified) is entered as HNF4A DNA FP = .; B2AR ag = .; A1 inh = 0.2; E coli growth = 0.659; Vif TR-FRET = -0.9%; LANA-H2B inh = 1.2; UCH37 inh = 3.1

Screening data (PubChem)
